# StopGo FLuc: Primary qHTS Assay for Foot and Mouth Disease Virus Antivirals against NCGC Sytravon and CBC Compound Libraries: Firefly Luciferase Signal; AID 1745856, 2022; Potency, µM (top dose mostly 57.5 µM), for inactives: at the top dose signal change, negative = less light; hit rate 0.23% among 120,000; HEK cells with a luciferase reporter of 2A StopGo recoding; active = well fitted falling curve with a large enough effect; inconclusive = small, poorly fitted or top-dose-only effect; inactive = no such curve, though single readings can be large or run the other way; also: nearly all actives have a fitted effect of over 60% in size; overnight with compound
# StopGo RLuc: Primary qHTS Assay for Foot and Mouth Disease Virus Antivirals against NCGC Sytravon and CBC Compound Libraries: Renilla Luciferase Signal | HEK cells with a luciferase reporter of 2A StopGo recoding | Potency, µM (series often up to 57.5 µM), without a hit: at the highest dose signal change, negative = less light | hit rate 0.32% among 120,000 | AID 1745857, 2022; active means well fitted falling curve with a large enough effect; inconclusive means small, poorly fitted or top-dose-only effect; inactive means no such curve, though single readings can be large or run the other way; also: nearly all actives have a fitted effect of over 55% in size; overnight with compound
# * marks the source's active call; other numbers are inactive results; ? = inconclusive; [ ] = remark or other dose. % is scaled to controls: 0 for no effect and ±100 for the full control effect; potency is read from the fitted curve at half-maximal effect.
SMILES,StopGo FLuc,StopGo RLuc
Cc1ccccc1CNC(=O)C1CCN(c2nnc(C)c3c(C)n(-c4ccccc4)nc23)CC1,-20.7%,-3.2%
N#CC1(NC(=O)COc2ccccc2C(F)(F)F)CCCCC1,3.4%,-8.4%
CCCOc1ccc(CN(C(=O)c2nc(SC(C)C)ncc2Cl)C2CCS(=O)(=O)C2)cc1 (stereo not given),-24.3%,25.7%
CCc1cccc(NC(=O)Cn2c(=O)n(-c3cccc(Cl)c3)c(=O)c3c2c2cc(C)ccc2n3C)c1,-10.5%,-2.7%
CCOC(=O)c1cc(NC(=O)CC2CCCC2)cc(C(=O)OCC)c1,18.9%,73.3%[activator]
O=C(c1ccc(F)c(F)c1)c1cc2cc(Br)ccc2o1,59.6%[activator],36.0%
CCC(C(=O)NCc1ccccc1Cl)n1nc(C)c2sc3ccccc3c2c1=O (stereo not given),5.0%,-18.4%
CCOc1ccc(N2CC(NC(=O)c3ccco3)CC2=O)cc1 (stereo not given),-12.2%,-7.4%
Cc1c(C(=O)N(C)C)sc2c1c(=O)n(-c1ccc(Cl)c(Cl)c1)c(=O)n2Cc1ccc(F)cc1,-15.5%,-3.1%
Cc1ccccc1NC(=O)CSc1nnc(COc2ccc(Cl)cc2)o1,-11.1%,-1.6%
CC(CC(=O)NCc1coc(-c2cccs2)n1)NC(=O)c1ccccc1 (stereo not given),-13.9%,-2.9%
CC(C)CC(NC(=O)c1ccccc1Cl)C(=O)O (stereo not given),-10.1%,5.0%
CCOc1ccc(NCc2cccn2-c2nnc(N3CCC(C(=O)NCC(C)c4ccccc4)CC3)s2)cc1 (stereo not given),-26.3%,12.0%
COc1ccc(CNC(=O)c2ccc(CNS(=O)(=O)c3ccc(F)cc3)cc2)cc1,-10.6%,6.5%
Cc1ccc(Cn2c(=O)c3cccnc3n(Cc3ccc(F)cc3)c2=O)cc1,-6.8%,3.8%
COc1ccc(C)cc1NC(=O)N(Cc1ccc(C)o1)C1CCN(C(C)=O)CC1,-13.7%,-3.5%
O=C(NC1CCCC1)c1ccc2c(c1)N(Cc1ccc(F)cc1)C(=O)c1ccccc1S2,-21.8%,17.9%
CCOc1cc(C(=O)Nc2ccc(NS(C)(=O)=O)cc2)ccc1OC,-5.7%,0.0%
Clc1cccc(CSc2cccc3cccnc23)c1,198.7%[activator],45.9%[activator]
CCc1ccc(NC(=O)COC(=O)C2CC(=O)N(c3ccc(Br)cc3)C2)cc1 (stereo not given),7.4%,-6.4%

# Six consecutive entries already listed:
SMILES,StopGo FLuc,StopGo RLuc
Cc1ccc(Cn2c(=O)c3cccnc3n(Cc3ccc(F)cc3)c2=O)cc1,-6.8%,3.8%
COc1ccc(C)cc1NC(=O)N(Cc1ccc(C)o1)C1CCN(C(C)=O)CC1,-13.7%,-3.5%
O=C(NC1CCCC1)c1ccc2c(c1)N(Cc1ccc(F)cc1)C(=O)c1ccccc1S2,-21.8%,17.9%
CCOc1cc(C(=O)Nc2ccc(NS(C)(=O)=O)cc2)ccc1OC,-5.7%,0.0%
Clc1cccc(CSc2cccc3cccnc23)c1,198.7%[activator],45.9%[activator]
CCc1ccc(NC(=O)COC(=O)C2CC(=O)N(c3ccc(Br)cc3)C2)cc1 (stereo not given),7.4%,-6.4%

# Continuation.
SMILES,StopGo FLuc,StopGo RLuc
O=C(CSc1nc2ncccc2o1)Nc1ccc(Cl)cc1F,3.6%,-7.5%
COc1ccccc1CCNS(=O)(=O)c1ccc(N2C(=O)C(C)(C)CS2(=O)=O)cc1,?,74.8%[activator]
CCCn1c(=N)c(C(=O)NCc2cccnc2)cc2c(=O)n3cccc(C)c3nc21,-21.0%,-7.7%
C[C@]12CCC(=O)C=C1[C@@H]1C[C@@H]1[C@H]1[C@@H]3[C@@H]4C[C@@H]4[C@@]4(CCC(=O)O4)[C@@]3(C)CC[C@@H]12,-16.8%[11.5 µM],-15.4%
COc1cc(N2C(=O)NC(=O)C3(Cc4cc(C)ccc4N(C)C3)C2=O)cc(OC)c1OC (stereo not given),4.4%,6.1%
O=C(O)CCc1ccncc1,1.7%,5.1%
CC(C)CC(=O)Nc1ccc(-c2csc(N)n2)cc1,178.3%[activator],8.5%
O=C(Cn1c(SCc2ccccc2F)nc2cccnc21)Nc1ccc(F)c(Cl)c1,-0.7%,?
Cc1ccc(S(=O)(=O)C(CNC(=O)c2ccc(F)c(F)c2)c2ccco2)cc1 (stereo not given),-4.6%,54.1%[activator]
CCc1cccc(NC(=O)CCNS(=O)(=O)c2ccc3c(c2)CCN3C(C)=O)c1,-25.6%,2.8%
Cc1c(Cl)cccc1-n1ncc(C(=O)Nc2ccc(Br)cc2F)c1C1CCNCC1,-26.3%,-8.6%
CCc1nnc(NC(=O)c2cc(=O)[nH]c3ccccc23)s1,0.0%,0.0%
O=[N+]([O-])c1cc(-c2nc(-c3ccccn3)no2)ccc1NCc1ccccc1,24.9%,16.7%
O=C(Nc1ccc(Cl)cc1C(F)(F)F)c1cccc(Cl)c1Cl,11.5%,-4.1%
Cc1ccc(OCCSc2nc3ccccc3n2CC(=O)N2CCCCC2)cc1C,-6.6%,16.0%
Cc1nc2ccn(Cc3ccccc3)c(=O)c2cc1C(=O)NCc1ccccc1F,-2.0%,11.9%
COc1ccccc1CNC(=O)CCC(=O)N1CC(C)Sc2ccccc21 (stereo not given),18.3%,-4.5%
CCC(Cn1nnc2ccccc2c1=O)NC(=O)Nc1cc(OC)cc(OC)c1 (stereo not given),-14.7%,4.4%
CCOCCc1nn2c(=O)cc(COC(=O)C(CC)c3ccccc3)nc2s1 (stereo not given),4.4%,-7.6%
Cc1c(C)c2ccc(OCC(=O)Nc3ccccc3)c(C)c2oc1=O,194.5%[activator],16.2%
Cc1ccc(CNCc2cccs2)s1,23.3%,-4.8%
COc1cccc(C2=C(C(C)=O)Sc3nnc(-c4ccccc4)n3N2C(C)=O)c1,1.2%,-6.6%
Cc1c(CC(=O)N2CCN(C(=O)C3COc4ccccc4O3)CC2)c(=O)oc2cc(O)c(Cl)cc12 (stereo not given),17.8%,13.2%
CCc1ccc(OC(=O)/C=C/c2ccccc2)cc1,4.6%,4.7%
O=C(Nc1ccc(Cl)c(C(F)(F)F)c1)c1nc2ccccc2nc1N1CCCCC1,-4.6%,10.0%
CC(C)CCNC(=O)CCC(=O)NCCC1=CCCCC1,-6.2%,-7.8%
COc1ccccc1Nc1nc(-c2ccccc2F)nc2ccccc12,6.3%,22.7%
CCCCCOc1ccc(OC(=O)c2ccc(-c3ccc(CC)cn3)cc2)cc1,47.3%[activator],11.6%
CCCNc1nc2ccccc2nc1C(=O)Nc1ccccc1Cl,6.2%,2.9%
CC(C)C(OC(=O)/C=C/c1cccc(F)c1)C(=O)NC(N)=O (stereo not given),-13.6%,-10.2%
CCc1cccc2c(C(=O)COC(=O)C3=NNC(=O)CC3)c[nH]c12,15.3%,0.3%
CCOc1ccc(NC(=O)c2n[nH]c(=O)c3ccccc23)cc1OCC,-1.7%,-1.3%
COc1ccccc1NC(=O)CSCc1ccc(Cl)c(Cl)c1,11.2%,7.5%
COc1cc(CN2CCN(S(=O)(=O)c3ccccc3)CC2)cc(OC)c1O,-3.3%,4.3%
Cc1ccc(-c2nc(C#N)c(NCCN(C)C)o2)cc1,38.2%[activator],18.2%
CNC(=O)C(C#N)(Cc1cccc2ccccc12)Cc1cccc2ccccc12,-26.4%,11.8%
CC1CCC(=NNC(=O)C2CC2)CC1 (stereo not given),0.8%,4.2%
CCn1ncc(Cl)c1CNC(=O)C1CCCN(S(=O)(=O)c2cnn(C)c2)C1 (stereo not given),0.5%,-6.2%
Cc1ccc(NC(=O)CSc2nc3c(oc4ccccc43)c(=O)n2-c2ccc(F)cc2)c(C)c1,-21.6%,-14.9%
Cc1nn(C)c(C)c1S(=O)(=O)N(CC(=O)NCCc1ccccc1)c1ccc(C(C)C)cc1,-0.2%,13.8%
Cc1ccc(N2CC3=C(C2=O)C(c2ccc(Br)cc2)NC(=O)N3C)cc1 (stereo not given),2.1%,5.8%
COc1ccc(N2Cc3cccc(C(=O)NCc4ccc(C)cc4)c3C2=O)cc1,29.8%,181.3%[activator]
N#Cc1ccc(COC(=O)c2ccc[nH]2)cc1,69.3%[activator],3.3%
CN(CC(=O)NCc1ccc(F)cc1)C(=O)c1ccc2c(c1)nnn2C,20.2%,10.2%
O=C(/C=C/c1cccc(O)c1)c1ccc(-c2cccs2)cc1,99.5%[activator],70.8%[activator]
CC(C)OCCCNC(=O)CN1C(=O)CSc2ccc(S(=O)(=O)N3CCCCC3)cc21,-11.0%,20.9%
O=C(NCCc1ccccn1)c1cccc(Cl)c1,152.7%[activator],11.1%
COc1cccc(N2CCN(C(=O)CCNS(=O)(=O)c3ccc4[nH]c(=O)ccc4c3)CC2)c1,9.3%,-10.8%
COc1ccc(C2SCCN2S(=O)(=O)c2ccc(Cl)c(Cl)c2)cc1 (stereo not given),8.1%,15.6%
Cc1c(-c2nc(-c3ccccc3F)no2)nnn1-c1cc(F)ccc1F,43.8%[activator],5.3%
# Additional compounds.
SMILES,StopGo FLuc,StopGo RLuc
CCCn1c(SCc2nc(-c3ccccc3C)no2)nnc1-c1ccc(Cl)cc1,-12.6%,4.1%
CCC1Oc2ccccc2N(CC(=O)NCc2ccc(C)cc2)C1=O (stereo not given),101.9%[activator],6.2%
Cc1nc2ccc(CO)cc2s1,51.4%[activator],15.8%
COCc1nnc(NC(=O)C2CC(=O)N(c3ccc(C)c(Cl)c3)C2)s1 (stereo not given),-13.8%,-3.3%
Cc1nc(NC(C)C)sc1C(=O)Nc1ccccc1,172.3%[activator],-0.5%
COc1cccc2c(Nc3cccc(O)c3)cc(C)nc12,-4.1%,-13.1%
COc1cccc(N2CC(NC(=O)c3cc4ccccc4o3)CC2=O)c1 (stereo not given),-17.2%,-11.1%
COc1ccc(C(=O)NCCc2sc(-c3ccc(F)cc3)nc2C)cc1OC,-5.3%,11.6%
COc1ccccc1-c1coc2cc(OC(=O)c3ccc(Cl)cc3)ccc2c1=O,10.5%,5.5%
Cc1nn(C(=O)c2ccc(Cl)cc2)c(C)c1S(=O)(=O)N1CCOCC1,2.0%,-8.7%

# Rewritten field by field: 3 of the compounds above.
CCCn1c(SCc2nc(-c3ccccc3C)no2)nnc1-c1ccc(Cl)cc1
  StopGo FLuc = -12.6%
  StopGo RLuc = 4.1%

COc1cccc(N2CC(NC(=O)c3cc4ccccc4o3)CC2=O)c1 (stereo not given)
  StopGo FLuc = -17.2%
  StopGo RLuc = -11.1%

Cc1nn(C(=O)c2ccc(Cl)cc2)c(C)c1S(=O)(=O)N1CCOCC1
  StopGo FLuc = 2.0%
  StopGo RLuc = -8.7%

# Going on with the list.
SMILES,StopGo FLuc,StopGo RLuc
CCOC(=O)C1=C(CN2CCCCC2)NC(=O)NC1c1ccc(OC)cc1 (stereo not given),-9.5%,3.2%
O=C1C(c2ccc(F)cc2)N(CCc2ccccc2)C(=O)CN1C1CCCCC1 (stereo not given),17.4%,13.5%
CCOc1ccccc1OCCCC(=O)Oc1ccc(-c2ccc(C#N)cc2)cc1,0.0%,3.8%
COc1ccccc1CNc1oc(-c2ccc(C)cc2)nc1C#N,188.7%[activator],37.8%[activator]
CCCOC(=O)c1c(NC(=O)c2nc3ncccn3n2)sc(C(N)=O)c1C,-13.5%,-12.8%
Cc1cn2c(=O)cc(COc3ccc(NC(=O)c4ccccc4C)cc3)nc2s1,-19.2%,-4.4%
CCOc1ccc2oc(C(=O)N3CCN(CC(=O)Nc4ccccc4C(F)(F)F)CC3)c(C)c2c1,2.9%,5.6%
CC(=O)[C@@]1(O)CC[C@H]2[C@@H]3C[C@H](C)C4=CC(=O)C=C[C@]4(C)[C@@]3(F)[C@@H](O)C[C@@]21C,10.1%,15.2%
Cc1ccc(Cn2c(CNS(=O)(=O)c3ccc(Cl)s3)nc3cccnc32)cc1,-18.6%,-5.2%
Cc1ccc(NC(=O)Cn2cnc3c2c(=O)n(C)c(=O)n3C)cc1F,5.2%,-0.1%
CCOc1ccc(NS(=O)(=O)c2cc(Br)cc3c2N(C(=O)C2CC2)CC3)cc1,-13.5%,24.0%
Cc1cc(C)cc(NC(=O)c2ccc3c(c2)CCC3)c1,185.0%[activator],9.0%
COc1ccc(Br)c2c1/C(=N/OC(=O)c1ccccc1Cl)CC2,50.1%[activator],13.5%
CCCNC(=O)CCc1c(C)n(CC)c2cc(-c3ccccc3OC)nn2c1=O,0.0%,41.6%[activator]
CN(Cc1ccccc1)C(=O)CSc1ncnc2ccccc12,37.4%[activator],-10.6%
Cc1[nH]c2c(ccc3ccccc32)c1C,76.1%[activator],-1.9%
COc1ccc(N2CCN(C(=O)Cn3cnc4nc5c(cc4c3=O)CCCC5)CC2)cc1,-11.4%,5.4%
COc1ccc2[nH]c(C(=O)N(C)Cc3ccccc3)c(C)c2c1,65.3%[activator],268.6%[activator]
COc1cccc(-c2nn(C)c3sc(C(=O)NCCc4cccc(C)c4)cc23)c1,37.3%[activator],38.2%[activator]
Cc1cc(NC(=O)COC(=O)c2cc3ccccc3s2)no1,-7.5%,-15.4%
COC(=O)c1cc(C)nc2c1c(=O)nc(SCc1ccccc1C)n2C1CC1,0.0%,-1.6%
COc1ccc(NC(=O)CC2C(=O)N(c3ccccc3)C(=O)N2CCC2=CCCCC2)cc1 (stereo not given),18.0%,106.9%[activator]
Cc1cccc(NC(=O)N(Cc2cccs2)C2CC2)c1,31.1%[activator],22.0%
COc1ccc(CN(Cc2ccco2)c2cnc(S(C)(=O)=O)nc2C(=O)Nc2ccc(C)c(C)c2)cc1,-7.3%,-6.1%

# Screening results (PubChem BioAssay)

# This is a subset (hit frequency here may not be typical).
